# Beta2AR agonist: activates human beta-2 adrenergic receptor causing internalization | P07550 | Am2.2-beta2AR cells, FAP receptor internalization, flow cytometry; reference of the scale not given here | response, % (no concentration beside the values) | 0.43% of 340,000 active | AID 504454;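 active = response above a set limit, near 3 SD of response in nonfluorescent compounds, cut at about 42% in these data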;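 also: stock transfer was 100 nL into about 11 µL; a reference agonist was the positive control; negative values mostly stem from fluorescent compounds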
# Target sequence (P07550 whole entry, looked up): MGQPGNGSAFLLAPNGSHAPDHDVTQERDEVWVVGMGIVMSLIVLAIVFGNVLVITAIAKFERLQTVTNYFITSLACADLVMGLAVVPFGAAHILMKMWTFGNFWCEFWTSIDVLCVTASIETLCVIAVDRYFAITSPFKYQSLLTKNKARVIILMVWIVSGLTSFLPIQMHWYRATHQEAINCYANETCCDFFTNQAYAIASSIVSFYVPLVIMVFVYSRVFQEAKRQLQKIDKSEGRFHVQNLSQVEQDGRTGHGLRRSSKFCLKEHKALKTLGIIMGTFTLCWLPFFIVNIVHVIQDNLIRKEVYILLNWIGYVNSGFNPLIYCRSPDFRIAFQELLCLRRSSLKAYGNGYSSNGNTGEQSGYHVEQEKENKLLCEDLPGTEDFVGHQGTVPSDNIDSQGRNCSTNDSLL
# Ecoli rRNA inh: inhibits bacterial ribosomal RNA function over humanized ribosomes; GFP signal change (wild-type ribosome), % (test concentration not listed); E. coli WT GFP vs humanized-ribosome RFP mutants, fluorescence, 24 h; stronger effect = lower value; DMSO median 0, no signal -100; 1.6% of 350,000 active;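 active = significant combined selectivity score with lowered wild-type GFP, culture density cut under 30%, mutant RFP and density less affected; inactive = any of these conditions unmet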; also: one replicate is shown; some compounds called inactive have numbers as strong as hits
# Beta apoptosis: beta cell apoptosis inhibition; protection from apoptosis, % (test concentration not listed); AID 435005; INS-1E cytokine-induced death, ATP luminescence, 48 h; percent of positive-control rescue, neutral wells zero; 0.8% of 300,000 active;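 active = all replicates at 75% or more, or half of them and the mean; inconclusive = half reach 75% but not the mean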;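 also: 0% = cytokine-treated negative control wells and 100% = positive control rescue; higher means more ATP so stronger rescue from cytokine killing; wells of about 40 µL received 100 nL stock; the first replicate is given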
# Calb FLC: affects C. albicans growth with fluconazole; C. albicans CaCi-2 (fluconazole-resistant clinical isolate) + fluconazole, Alamar Blue growth, 48 h; growth inhibition, % (no concentration beside the values); 0.57% of 300,000 active;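 active = most replicates above 75%; inconclusive = exactly half above 75%; inactive = most below 75%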;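 also: all wells also contain fluconazole at 8 µg/ml as a sub-toxic cotreatment; 0% = median of DMSO wells and 100% = median of geldanamycin control wells; wells of about 8 µL received 7.5 nL stock; the first replicate is given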
# ALR inh: inhibitors of human sulfhydryl oxidase ALR; AID 485317; P55789; purified ALR, DTT oxidation, H2O2 HRP-luminol luminescence; inhibition, % (concentration not given with the values); 3.8% of 290,000 active;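 active = mean and each replicate at 75% or more; inconclusive = only one of the two met; inactive = neither met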;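 also: stock transfer was 7.5 nL into about 7.5 µL; 0% = neutral wells and 100% = wells with inactivated enzyme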
# Target sequence (P55789 whole entry, looked up): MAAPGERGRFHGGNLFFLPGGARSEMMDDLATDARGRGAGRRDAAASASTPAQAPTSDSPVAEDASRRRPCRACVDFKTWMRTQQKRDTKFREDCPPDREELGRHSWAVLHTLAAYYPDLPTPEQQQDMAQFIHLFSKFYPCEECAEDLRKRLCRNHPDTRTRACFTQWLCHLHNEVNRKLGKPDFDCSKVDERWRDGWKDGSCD
# LANA-H2A inh: blocks KSHV LANA binding to histone H2A/H2B. inhibition, % (concentration not given with the values). cell-free LANA-H2A/H2B peptide, fluorescence polarization. 0.6% of 320,000 active. AID 2629; in the data active = inhibition mostly above about 10%, no sharp cut-off; inactive = mostly below about 6.7%;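 also: stock transfer was 7.5 nL into about 10 µL; 0% = median of vehicle wells and 100% = median of positive control wells; one replicate is shown; the record names a cut of 25% in any replicate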
# T cruzi repl: T. cruzi replication inhibition | 1.4% of 300,000 active | inhibition, % (concentration not given with the values) | T. cruzi beta-gal in NIH3T3, luminescence, 90 h | AID 1885;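 active = mean inhibition across valid replicates above about 55%, limit read from the data; inconclusive = mean below that limit but half or more replicates reach it; inactive = mean below it, under half of replicates reach it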;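 also: signal also drops with host cell toxicity which is not excluded here; 0% = plate median of DMSO wells and 100% = zero luminescence signal; higher percent means less beta-gal luminescence so fewer parasites; stock transfer was 50 nL into about 50 µL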
# Bfl-1 A1 inh: inhibitors of the anti-apoptotic protein A1, read as caspase activation; MEF A1-2A-BIM cells, Caspase-Glo 3/7 luminescence, 3 h; percent of clofoctol response, vehicle zero; caspase activation, % (test concentration not listed); 0.066% of 330,000 active;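 active = over half of replicate activation scores above 10%, or exactly half above 10 with the replicate mean above 10; inconclusive = replicate mean below 10 yet half the replicates above 10; inactive = over half of replicates below 10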;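 also: wells of about 30 µL received 50 nL stock; many hits fall short of the cut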
# Ecoli rRNA inh OD600: further read-out of Ecoli rRNA inh, marked with its call; OD600 change, %; measured here: OD600 growth;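 optical density of the mix in the first replicate; 0 = DMSO median and -100 = no signal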
# Ecoli rRNA inh RFP: recorded beside Ecoli rRNA inh, whose call it bears; RFP signal change, %; measured here: RFP humanized mutant strains;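 first replicate; 0 = DMSO median and -100 = no signal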
# * marks the source's active call; other numbers are inactive results; ? = inconclusive; nt = not tested or not shown.
SMILES,Beta2AR agonist,Ecoli rRNA inh,Ecoli rRNA inh OD600,Ecoli rRNA inh RFP,Beta apoptosis,Calb FLC,ALR inh,LANA-H2A inh,T cruzi repl,Bfl-1 A1 inh
CC(=O)N[C@@H](Cc1c[nH]c2ccccc12)C(=O)OCC(=O)NCc1ccc2c(c1)OCO2,5,5,-1,0.7,-7,9,-3,-1.8,-15,-0.7
CCCOc1ccc(Oc2cc(C)nc(SC)n2)nn1,-6,nt,nt,nt,0,5,4,-1.2,-15,-0.5
CCSc1nnc(NC(=O)c2ccc3c(c2)OCO3)s1,-4,nt,nt,nt,-8,-3,-5,-2.4,-6,-7.5
O=C(CCN1C(=O)/C(=C/c2ccccc2)SC1=S)NNC(=O)c1cccnc1,-12,nt,nt,nt,0,-5,-21,-0.1,-15,-0.3
Cc1ccc(S(=O)(=O)N2CCOCC2)cc1C(=O)NC1CCCC(C)C1C (configuration not stated),-4,6,9,3.8,-1,2,-9,3.2,9,0.1
CC(CCc1ccccc1)NC(=O)c1ccccc1F (configuration not stated),10,2,-8,1.7,0,-10,-31,-1.6,3,-0.1
C/C(=N\NS(=O)(=O)c1ccc(Br)cc1)c1cccs1,3,nt,nt,nt,-3,20,nt,3.1,-23,1.7
O=C(Nc1cc(C(F)(F)F)ccc1Cl)C(Sc1cccc[n+]1[O-])c1ccccc1 (configuration not stated),-14,nt,nt,nt,nt,14,3,2.2,6,-0.5
COc1ccccc1NC(=O)c1cc(C)oc1C,-6,9,6,4.7,4,-10,-3,-5.4,-12,-2.4
O=C(O)c1csc(Br)c1Br,-4,nt,nt,nt,-1,-1,6,2.0,-15,0.1
CCN(CC)C(=O)CSc1nc2cc3c(cc2c(=O)n1CCCCCC(=O)NCc1ccc(OC)cc1)OCO3,2,20,4,2.1,-2,-4,-7,1.1,16,0.8
C=CCn1c(O)c(N=NC(=S)Nc2ccccc2F)c2ccccc21,11,-21*,-9.4*,-2.6*,56,-5,19,0.7,49,1.2

# Entries listed so far containing two or more sulfur atoms (three):
SMILES,Beta2AR agonist,Ecoli rRNA inh,Ecoli rRNA inh OD600,Ecoli rRNA inh RFP,Beta apoptosis,Calb FLC,ALR inh,LANA-H2A inh,T cruzi repl,Bfl-1 A1 inh
CCSc1nnc(NC(=O)c2ccc3c(c2)OCO3)s1,-4,nt,nt,nt,-8,-3,-5,-2.4,-6,-7.5
O=C(CCN1C(=O)/C(=C/c2ccccc2)SC1=S)NNC(=O)c1cccnc1,-12,nt,nt,nt,0,-5,-21,-0.1,-15,-0.3
C/C(=N\NS(=O)(=O)c1ccc(Br)cc1)c1cccs1,3,nt,nt,nt,-3,20,nt,3.1,-23,1.7

# The list continues:
SMILES,Beta2AR agonist,Ecoli rRNA inh,Ecoli rRNA inh OD600,Ecoli rRNA inh RFP,Beta apoptosis,Calb FLC,ALR inh,LANA-H2A inh,T cruzi repl,Bfl-1 A1 inh
CCCN(CC(=O)Nc1ccccc1OC)C(=O)CCCN1C(=O)c2ccccc2C1=O,-6,10,-3,-1.2,nt,10,9,3.2,-5,0.1
CCOC(=O)C1=C(C)Nc2[nH]c(=O)[nH]c(=O)c2C1c1cccs1 (configuration not stated),6,-6,4,-2.2,2,-3,3,-5.0,-12,0.1
CCC1Nc2ncnc(N3CCN(c4ccccc4)CC3)c2N(Cc2ccc(Br)cc2)C1=O (configuration not stated),15,7,11,6.7,1,-5,18,-1.0,58*,2.0
S=C(NCc1ccco1)N1CCOCC1,-1,5,8,1.1,-3,0,-15,-5.6,3,1.6
Cc1ccc(NC(=O)COC(=O)Cn2c(C)csc2=O)cc1C,4,nt,nt,nt,-7,-6,-4,-1.4,-17,2.5
CN(C)S(=O)(=O)c1ccc(N2CCCC2)c(C(=O)NNC(=O)COc2ccc(Cl)cc2)c1,4,-3,-11,-2.4,-2,-12,1,0.0,9,0.8
Cc1ccccc1Nc1nc(-c2cccnc2)cs1,5,-6,2,-2.6,-12,0,11,-2.8,20,-4.6
C#CCNC(=O)C1=C[C@@H](C)C[C@@H](OCc2ccc(CO)cc2)O1,0,4,19,-5.6,-5,4,-1,3.0,-18,-0.5
CC1CCN(CCc2nc3cc(NS(=O)(=O)c4ccc(F)cc4)ccc3n2C)CC1,0,nt,nt,nt,-4,-3,-3,1.6,-6,-0.1
Nc1ccc(-n2cnc3cc([N+](=O)[O-])ccc32)cc1,5,nt,nt,nt,2,17,11,-3.9,22,-0.4
CN(C)c1cccc(C(=O)N2CCCC(CCC(=O)N3CCN(c4ccccn4)CC3)C2)c1 (configuration not stated),-2,-4,-2,2.3,0,2,24,0.7,12,0.5
COc1ccc(C(=O)NCC(C)(C)SCc2c(C)cc(C)cc2C)cc1,3,-2,-3,11,-12,-7,3,-8.8,1,-0.4
COc1ccc(N2CC(C(=O)NCc3n[nH]c(=O)c4ccccc34)CC2=O)cc1 (configuration not stated),-2,15,10,1.1,nt,-13,nt,nt,-1,nt
C#CCn1cccc(C(=O)Nc2ccc(OC)cc2)c1=O,0,1,1,-4.0,-9,-4,-2,-6.3,-11,-1.1
C=CC(=O)NN(C)c1ncc(C(F)(F)F)cc1Cl,-5,25,17,1.3,2,14,37,-4.3,0,0.5
COC(=O)c1[nH]c2ccc(C)cc2c1NC(=O)NC1CCCCC1,3,nt,nt,nt,3,-9,-6,0.2,6,0.2
CCOc1ccccc1-n1c(SCC(=O)N2CCCC2)nnc1-c1ccoc1C,3,nt,nt,nt,1,-1,-3,0.6,-4,-0.8
COc1ccc(/C=N/NC(=O)c2cc(C34CC5CC(CC(C5)C3)C4)[nH]n2)cc1O,4,nt,nt,nt,-4,45,42,1.3,0,0.8
CCN(CC)C(=O)c1cn(-c2ccccc2)nc1-c1ccc2c(c1)OCCO2,-14,-16,-22,1.8,6,-4,-12,-3.2,28,-0.6
O=C(CSc1nc2c([nH]c3ccccc32)c(=O)n1-c1ccccc1F)NCC1CCCO1 (configuration not stated),2,-3,-7,0.2,0,4,30,-2.8,11,-0.7
CCCCCCCc1c(O)nc(SCCN2CCOCC2)[nH]c1=O,-4,-2,6,11,-6,12,17,4.3,0,-0.5
CCc1ccc(NC(=O)Cn2c(SC)nc3ccccc32)cc1,-1,nt,nt,nt,3,-6,-3,5.4,-7,0.4
O=C(CSc1nncs1)NCCCc1ccccc1,0,3,2,-0.8,-2,-14,-6,0.1,-6,0.8
CCOC(=O)c1c(C)[nH]c(C(=O)Cn2nnc(-c3ccccc3Cl)n2)c1C,-1,nt,nt,nt,11,32,-6,5.0,16,-0.7
CCn1ncc(CN2CCCC(CNC(=O)c3ccc(F)cc3)C2)c1C (configuration not stated),-11,22,16,1.8,-3,-3,-6,2.6,73*,?
Cc1cccc(NC(=O)CSc2nc(N)c(NC(=O)c3cccs3)c(=O)[nH]2)c1C,-15,4,16,-3.9,10,5,13,-3.5,1,-1.0
CC(=O)N1c2ccc(S(=O)(=O)N3CCCC3C(=O)NCc3ccc(Cl)cc3)cc2CC1C (configuration not stated),-18,1,-2,4.2,3,4,1,3.4,12,-0.6
O=c1cc(O)c2sc3nc(-c4cccnc4)cc(C(F)(F)F)c3c2[nH]1,-12,nt,nt,nt,5,-3,11,0.2,-18,0.6
COc1cccc(NC(=O)CN(C)C(=O)Cc2cccc3ccccc23)c1,-11,nt,nt,nt,-3,nt,-1,-1.1,nt,-0.6
Cn1c2ccc(F)cc2c2nnc(SCCN3CCOCC3)nc21,4,-11,-5,-1.1,nt,4,nt,nt,2,nt
COc1ccc(N2CCN(C(=O)c3cn(C4CCCC4)c(=O)c4c3c3ccccc3n4C)CC2)cc1,15,nt,nt,nt,2,-2,-14,2.2,48,-0.8
CCN1CCc2c(sc(NC(=O)c3ccc(S(=O)(=O)N(C)CC4CCCO4)cc3)c2C(N)=O)C1 (configuration not stated),13,-8,-7,-3.7,0,-4,-1,1.6,-4,-0.9
CC(OC(=O)CN1C(=O)c2ccccc2C1=O)C(=O)c1ccccc1 (configuration not stated),7,3,12,-2.1,-5,nt,5,10,nt,0.8
COc1ccc(C2(C(N)=O)CCCCC2)cc1OC,1,nt,nt,nt,-21,1,-2,-2.9,-3,0.1
COc1ccc(C(=O)NC2(C(F)(F)F)NC(=O)N(CCCc3ccccc3)C2=O)c(OC)c1OC (configuration not stated),-12,nt,nt,nt,-2,-19,-2,1.8,-1,0.5
O=C(c1ccc(COc2ccccc2Br)cc1)N1CCCCC1,-2,nt,nt,nt,-3,-14,nt,-6.5,18,0.1
COc1ccc(C)cc1NC(=O)c1ccc2c(c1)OCO2,3,nt,nt,nt,6,-15,8,-1.4,-4,-0.5
Cc1noc(C)c1S(=O)(=O)N1CCCC1C(=O)O (configuration not stated),9,8,12,-1.8,-9,27,nt,1.2,-15,0.2
COc1ccc(C(=O)N2CCN(C(=O)C3CCCO3)CC2)cc1[N+](=O)[O-] (configuration not stated),-6,7,14,0.7,-3,nt,nt,-0.1,nt,-1.8
Cn1nccc1C(=O)NC1CCCc2c1cnn2-c1ccc(F)cc1F (configuration not stated),5,21,18,11,132*,46,-2,-2.4,3,-1.0
COc1cc(/C=C/C(=O)OCC(=O)NC(=O)NC(C)C)cc(S(=O)(=O)N2CCc3ccccc32)c1OC,15,-12,-10,0.4,1,22,-4,26*,-4,0.7
Cc1cc(C)c2c(n1)nn1c(NCCN3CCOCC3)cc(C)nc21,8,nt,nt,nt,-7,-7,0,1.8,-5,0.0
Cc1cc(Nc2cnc3ccccc3n2)n(-c2ccccc2)n1,2,nt,nt,nt,-4,28,-4,5.0,5,-0.4
COc1ccc(Cn2cc(F)c(=O)n(C)c2=O)cc1[N+](=O)[O-],-2,-3,3,-2.6,nt,1,1,0.5,-21,?
CN(c1ccccc1)S(=O)(=O)c1ccc(C(=O)NCCc2ccccc2)cc1,22,-13,-29,-1.1,-6,16,nt,-4.5,16,0.8
NC(CC(=O)O)c1ccc(F)cc1 (configuration not stated),0,nt,nt,nt,nt,?,-10,-1.4,1,1.9
CCOc1ccc(C(=O)NC(=S)Nc2cccnc2)cc1[N+](=O)[O-],-7,0,11,5.0,-9,-9,-3,5.2,10,0.4
Cc1cc(Br)c(NC(=O)COC(=O)CC2CC3CCC2C3)c(Br)c1 (configuration not stated),-2,2,6,1.9,-1,nt,-5,7.8,nt,-0.1

# LANA-H2A inh, what is marked active above
SMILES	Beta2AR agonist	Ecoli rRNA inh	Ecoli rRNA inh OD600	Ecoli rRNA inh RFP	ALR inh	LANA-H2A inh
COc1cc(/C=C/C(=O)OCC(=O)NC(=O)NC(C)C)cc(S(=O)(=O)N2CCc3ccccc32)c1OC	15	-12	-10	0.4	-4	26*

# Compound activity: PubChem, several laboratories

# An excerpt; the hit share may differ from the screen's.
